# UUG fidelity: modulators of start codon recognition fidelity in yeast; S. cerevisiae UUG-firefly luciferase reporter, luminescence/redox ratio; activity score, % at 18.7 µM; 350,000 tested, 0.13% active;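 active means replicate mean at a twofold rise or more, about +100% in these data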;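 further: firefly luciferase made from a UUG start codon reports start codon fidelity; reporter light over untreated wells divided by growth signal over untreated wells; some hits fall short of that in this replicate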
# MT1-MMP act inh: inhibitors of human MT1-MMP activation | P50281 | HT1080 RFP-PRO-GFP cells, GFP/RFP ratio fluorescence, overnight; percent of plate control window, DMSO zero | GFP/RFP ratio change, % at 20 µM | 360,000 tested, 0.061% active | AID 651647;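 active means GFP/RFP ratio change of at least 30% with cell ATP level not reduced by more than half and red fluorescence within 50% of control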; further: strong numbers were not always called active
#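 Assay system: RFP-PRO-GFP reporter HT1080 cells; read-out basis: GFP/RFP fluorescence ratio; benchmarks: DMSO wells and RFP-L50D-GFP cells; doses: 20 µM single dose, 1% DMSO; schedule: overnight cell settling, then overnight compound exposure, 37 °C, 5% CO2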
# eIF4H inh: inhibitors of RNA binding by human eIF4H; Q15056; eIF4H fluorescence polarization binding assay; inhibition, % at 35 µM; 290,000 tested, 0.94% active;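 active means 50% or more with normal probe brightness, or confirmed in later tests; inconclusive means above 50% with abnormal brightness, or retests that disagree; inactive means below 50% or failed in later tests; about a fifth of its hits are not listed in these tables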;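 further: calls also rest on retests at 20 µM and on dose response follow-up; 0% = protein and probe with vehicle and 100% = probe without protein; strong numbers were not always called active; many hits fall short of the cut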
# Env fusion inh: HIV envelope-mediated fusion inhibition. HeLa-JRFL Env/CEM21 cell fusion, luciferase. 360,000 tested, 1.1% active. inhibition, % at 12.3 µM;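 active means mean replicate inhibition score of at least 50 and every replicate individually at or above 50; inconclusive means only one of the two criteria met; inactive means mean below 50 and not all replicates reaching 50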;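 further: 0% = plate neutral controls and 100% = maraviroc near 300 nM; one replicate is shown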
# PABP FP inh: PABP-poly(A) binding inhibition. 290,000 tested, 1% active. P11940. PABP-poly(A) RNA binding, fluorescence polarization. inhibition, % at 35 µM;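 active means 50% or more with normal probe brightness, or confirmed in later tests; inconclusive means above 50% with abnormal brightness, or retests that disagree; inactive means below 50% or failed in later tests; about a fifth of its hits are not listed in these tables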;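 further: calls also rest on retests at 20 µM and on dose response follow-up; controls were probe without protein and protein plus probe with vehicle; some compounds called inactive have numbers as strong as hits; many hits fall short of the cut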
# Target sequence (P11940 whole entry, looked up): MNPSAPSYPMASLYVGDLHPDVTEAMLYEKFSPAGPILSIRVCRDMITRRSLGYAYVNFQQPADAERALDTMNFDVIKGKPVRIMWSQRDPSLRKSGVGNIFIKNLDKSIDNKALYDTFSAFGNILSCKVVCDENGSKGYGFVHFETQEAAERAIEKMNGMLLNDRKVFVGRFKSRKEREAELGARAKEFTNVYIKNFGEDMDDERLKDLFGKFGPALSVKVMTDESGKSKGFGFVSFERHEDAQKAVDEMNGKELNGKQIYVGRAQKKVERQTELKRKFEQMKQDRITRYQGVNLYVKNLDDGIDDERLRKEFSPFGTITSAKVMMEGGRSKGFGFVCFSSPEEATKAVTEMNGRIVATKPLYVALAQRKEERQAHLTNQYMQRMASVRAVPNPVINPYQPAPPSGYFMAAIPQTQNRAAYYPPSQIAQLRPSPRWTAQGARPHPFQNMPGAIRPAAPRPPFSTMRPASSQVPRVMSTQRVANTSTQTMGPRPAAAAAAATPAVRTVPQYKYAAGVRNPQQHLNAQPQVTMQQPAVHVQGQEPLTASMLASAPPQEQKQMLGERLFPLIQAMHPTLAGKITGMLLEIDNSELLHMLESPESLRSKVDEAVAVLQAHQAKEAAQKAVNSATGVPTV
# CSC inhib: cancer stem cell inhibition. cancer stem cell-like cells viability, luminescence. inhibition, % at 7.5 µM. 300,000 tested, 1.1% active. AID 2717;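 active means mean at 75% or more and at least half the replicates too; inconclusive means mean and replicates disagree; tested in HMLE shEcad cells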;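 further: 0% = median of negative and 100% = median of positive control wells; the first replicate is given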
# Rce1 inh: yeast Ras-converting enzyme inhibition; Q03530; yeast membranes, quenched prenylated peptide cleavage fluorescence; calls only; 290,000 tested, 0.27% active;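 active means fall in fluorescence gain of 50% or more versus controls, with final raw signal at or below 3038400; inconclusive means same 50% fall but final raw signal above 3038400; inactive means fall in fluorescence gain under 50%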;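 further: plate controls were neutral control wells for no effect and wells lacking membranes for full effect; tested at 10 µM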
# Target sequence (Q03530 whole entry, looked up): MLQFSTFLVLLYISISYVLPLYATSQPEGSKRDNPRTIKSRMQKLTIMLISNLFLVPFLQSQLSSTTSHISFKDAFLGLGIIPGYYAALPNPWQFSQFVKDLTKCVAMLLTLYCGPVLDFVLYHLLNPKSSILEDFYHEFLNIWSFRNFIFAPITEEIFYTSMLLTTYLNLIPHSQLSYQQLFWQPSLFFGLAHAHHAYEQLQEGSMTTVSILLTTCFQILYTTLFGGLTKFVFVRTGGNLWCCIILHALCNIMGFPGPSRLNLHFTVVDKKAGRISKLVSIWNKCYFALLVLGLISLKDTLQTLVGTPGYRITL
# eIF4H inh retest: recorded beside eIF4H inh, whose call it bears; inhibition, %; compound at 20 µM; confirmation average;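 mean of two retest wells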
# PABP FP inh retest: second read-out of PABP FP inh, no call of its own (marks repeat the call); inhibition, %; compound at 20 µM; confirmation repeats;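 mean of two retest wells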
# MT1-MMP act inh RFP: also measured in MT1-MMP act inh; calls as there; RFP signal change, %; measured here: RFP expression control read;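 0 = vehicle wells; hits needed this value within 50% of zero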
# * = called active by the depositor; i = inactive; ? = inconclusive; · = not tested or not shown; & = joins results of further samples; ! = not confirmed by another sample. Some of the compounds tested; the hit share may differ from the screen's.
SMILES,UUG fidelity,MT1-MMP act inh,MT1-MMP act inh RFP,eIF4H inh,Env fusion inh,PABP FP inh,CSC inhib,Rce1 inh,others
O=C(NCc1cccnc1)C(Cl)(Cl)Cl,·,2,3,-2,-3,5,6,i,
COc1ccc(CCn2c(O)c(C=Nc3ccccc3F)c(=O)[nH]c2=O)cc1OC,-15,-11,-3,?,-16,?,-20,i,
N#CC1(c2ccccc2)CCN(C2CC(=O)N(c3ccc4c(c3)OCO4)C2=O)CC1 (stereo not given),·,6,4,-3,22,9,-12,i,
O=C(Nc1ccc2ccccc2c1)N1C[C@H]2C[C@@H](C1)c1cccc(=O)n1C2,·,8,4,1,-18,8,-6,i,
CCOc1ccc2[nH]c(=O)c(CN(CCO)C3(c4nnnn4C4CCCCC4)CCCCC3)cc2c1,-4,0,-1,6,·,20,14,i,
CN(C)c1ccc(/C=C2\C(=O)NC(=O)N(CCc3ccc(F)cc3)C2=O)cc1,-18,7,21,111*,-3,50*,-4,i,
CC(=O)N1CN2CN(C(C)=O)CC(C(=O)c3ccc([N+](=O)[O-])cc3)(C2)C1,-7,4,4,5,-7,-1,-16,i,
O=C1/C(=C\c2ccc(Cl)cc2Cl)N2CCC1CC2,-7,-3,-2,6,10,5,-16,i,
N=C1c2ccccc2CN1NC(=O)c1ccc(Br)o1,1,1,4,-7,1,-1,-14,i,
Clc1cccc(Cl)c1NC1=NCCS1,-19,0,0,·,29,·,·,·,
Cc1c(N=Cc2c(O)n(CCc3ccc(F)cc3)c(=O)[nH]c2=O)c(=O)n(-c2ccccc2)n1C,-6,4,-4,4,18,2,-13,i,
O=C(O)c1cccc(N=Nc2c(O)[nH]c(=O)[nH]c2=O)c1,-19,-2,1,-7,-1,-6,-31,i,
CN1CCN(c2ccc(C=O)cc2)CC1,-8,2,7,-1,-33,4,14,i,
COc1ccc(-n2nc(C(=O)NCC(=O)N3CCC4(CC3)OCCO4)c3ccccc3c2=O)cc1OC,4,2,2,29,-22,4,-10,i,
CN1C(=O)C(Cc2cccc3ccccc23)C(=O)N(C)C1=O,-13,-3,-2,-5,·,17,-14,i,
COc1ccc(Cn2c(O)c(/C=N/NC(=O)c3ccccc3)c(=O)[nH]c2=O)cc1,-19,5,10,?,1,-6,-5,i,
CCOP(=O)(OCC)C(C)(C)NC(=O)C(Cl)(Cl)Cl,-2,4,9,4,-37,3,-17,i,
CC(CN(C)C1CCN(C)CC1)c1ccccc1 (stereo not given),-27,1,7,8,3,12,-13,i,
c1cc2c(cc1N1CCOCC1)CNCc1cnnn1-2,-2,5,7,·,-2,·,·,·,
CCOC(=O)C1(CCOc2ccccc2)CCN(C2Cc3ccccc3C2)CC1,·,-9,-9,-12,12,-8,51,i,
CCOC(=O)CC1c2ccccc2-n2nncc2CN1CC1CCCCC1 (stereo not given),-7,-1,-3,·,-44,·,·,·,
COc1ccc(C=C2C(=O)N(C)C(=O)N(C)C2=O)cc1COc1ccc(NC(C)=O)cc1,-1,-1,-3,37,25,2,32,i,
O=P(Oc1ccccc1)(Oc1ccccc1)c1ccccc1,-4,3,2,-10,-1,12,-3,·,
N[C@@H](Cn1oc(=O)[nH]c1=O)C(=O)O,-15,3,5,·,-13,·,0,i,
CCCCn1c(=O)c(C(=O)NCCc2ccccc2)c(O)c2ccccc21,-10,-1,-2,3,31,-8,45,i,
SMILES,UUG fidelity,MT1-MMP act inh,MT1-MMP act inh RFP,eIF4H inh,Env fusion inh,PABP FP inh,CSC inhib,Rce1 inh,others
CCOC(=O)C1=C(NC(=S)NC(=O)c2ccccc2)c2ccccc2CC12CCCC2,·,-19,-21,0,-4,-6,·,i,
CC1=CC(=C2C(=O)NC(=S)NC2=O)C=C(C(F)(F)F)N1CCc1ccccc1,·,·,·,8,·,-5,33,i,
Cc1cccc(NC2=NCCCS2)c1C,-7,-4,1,-7,-38,11,·,i,
COC(=O)C(O)(c1ccc(NC(=O)c2cccs2)c(C)c1)C(F)(F)F (stereo not given),0,0,1,2,-17,5,-10,i,
O=C(c1cc2ccccn2n1)N1CCC2(CC1)OCCO2,-7,0,-1,-7,-29,-2,-3,i,
Cc1[nH]c2ccccc2c1CCNCc1cccnc1,-13,-2,3,·,12,·,-1,i,
Fc1ccccc1CN1CCN(c2ccc(Cl)cc2)CC1,0,1,2,-12,3,-4,7,i,
CCc1cc(=O)oc2c(C)c(OCC(=O)N3C[C@H]4C[C@@H](C3)c3cccc(=O)n3C4)ccc12,-28,-4,-2,-6,·,-10,-2,i,
CC(C(N)=O)N1CC(c2ccccc2)CC1=O (stereo not given),-12,3,5,-8,·,3,4,·,
CN1CC(C(=O)c2ccccc2)C(c2ccccc2)C1 (stereo not given),5,-3,-1,-1,-6,4,1,i,
O=C1/C(=C/c2ccccc2Cl)N2CCC1CC2,·,-2,4,4,17,3,-2,i,
O=c1c2ccccc2nc(CSc2ncnc3nc[nH]c23)n1-c1ccccc1,2,0,-3,0,10,6,13,i,
C#CC[N+]1(C)C2CCC1CC(O)C2 (stereo not given),-32,2,4,2,-8,-8,24,i,
S=C=Nc1cccc(C2(N3CCCCC3)CCCCC2)c1,-10,-2,4,·,-6,·,5,·,
O=C(c1ccc2c(c1)ncn2-c1ccc(F)cc1F)N1CCC2(CC1)OCCO2,·,-3,-2,-6,-36,-4,10,i,
O=C1NC(=O)N(Cc2ccccc2)C(=O)/C1=C/N1CCCc2ccccc21,-16,-15,18,?,8,2,-8,i,
O=C(Cc1ccccc1)OCCN1CCOCC1,·,-1,4,-2,12,-3,·,i,
CNCCCc1ccccc1,-42,-2,5,-4,-6,-2,-21,i,
COC(=O)c1c(C)[nH]c(C(=O)C(Cc2ccccc2)N(C)C)c1C (stereo not given),-15,-24,-11,-13,·,-8,-1,i,
COc1ccc(N/N=C/c2c(O)n(-c3ccc(C)c(C)c3)c(=O)[nH]c2=O)cc1,·,-7,4,24,13,7,117*,i,
CCc1nc2ccccc2c(=O)n1-c1ccc2ccccc2c1,-12,-6,-3,12,-14,-10,7,i,
Nc1cncc(C(=O)O)c1,0,-4,-3,53*!,-3&20,21&0,-8&-14,i,eIF4H inh retest=70*!;PABP FP inh retest=40&3
CCC(=O)OC1(c2cccc(C)c2)CC(C)N(C)CC1C (stereo not given),-16,0,0,-8,·,5,0,i,
COc1ccc(CCNCc2sccc2C)cc1,-8,3,1,-2,-13,-1,0,i,
COc1ccc(C2NCc3ccccc3-n3cccc32)cc1 (stereo not given),-15,-1,0,-5,6,-1,-1,i,

# 17 entries from above, sorted by molar mass, rising.
SMILES,UUG fidelity,MT1-MMP act inh,MT1-MMP act inh RFP,eIF4H inh,Env fusion inh,PABP FP inh,CSC inhib,Rce1 inh,others
C#CC[N+]1(C)C2CCC1CC(O)C2 (stereo not given),-32,2,4,2,-8,-8,24,i,
Cc1cccc(NC2=NCCCS2)c1C,-7,-4,1,-7,-38,11,·,i,
O=C1/C(=C/c2ccccc2Cl)N2CCC1CC2,·,-2,4,4,17,3,-2,i,
O=C(Cc1ccccc1)OCCN1CCOCC1,·,-1,4,-2,12,-3,·,i,
COc1ccc(CCNCc2sccc2C)cc1,-8,3,1,-2,-13,-1,0,i,
Cc1[nH]c2ccccc2c1CCNCc1cccnc1,-13,-2,3,·,12,·,-1,i,
O=C(c1cc2ccccn2n1)N1CCC2(CC1)OCCO2,-7,0,-1,-7,-29,-2,-3,i,
CCC(=O)OC1(c2cccc(C)c2)CC(C)N(C)CC1C (stereo not given),-16,0,0,-8,·,5,0,i,
COc1ccc(C2NCc3ccccc3-n3cccc32)cc1 (stereo not given),-15,-1,0,-5,6,-1,-1,i,
CCc1nc2ccccc2c(=O)n1-c1ccc2ccccc2c1,-12,-6,-3,12,-14,-10,7,i,
COC(=O)c1c(C)[nH]c(C(=O)C(Cc2ccccc2)N(C)C)c1C (stereo not given),-15,-24,-11,-13,·,-8,-1,i,
O=C1NC(=O)N(Cc2ccccc2)C(=O)/C1=C/N1CCCc2ccccc21,-16,-15,18,?,8,2,-8,i,
COC(=O)C(O)(c1ccc(NC(=O)c2cccs2)c(C)c1)C(F)(F)F (stereo not given),0,0,1,2,-17,5,-10,i,
COc1ccc(N/N=C/c2c(O)n(-c3ccc(C)c(C)c3)c(=O)[nH]c2=O)cc1,·,-7,4,24,13,7,117*,i,
O=C(c1ccc2c(c1)ncn2-c1ccc(F)cc1F)N1CCC2(CC1)OCCO2,·,-3,-2,-6,-36,-4,10,i,
CCc1cc(=O)oc2c(C)c(OCC(=O)N3C[C@H]4C[C@@H](C3)c3cccc(=O)n3C4)ccc12,-28,-4,-2,-6,·,-10,-2,i,
CCOC(=O)C1=C(NC(=S)NC(=O)c2ccccc2)c2ccccc2CC12CCCC2,·,-19,-21,0,-4,-6,·,i,

# Continued:
SMILES,UUG fidelity,MT1-MMP act inh,MT1-MMP act inh RFP,eIF4H inh,Env fusion inh,PABP FP inh,CSC inhib,Rce1 inh,others
COc1cc(/C=C/C(=O)c2c(O)n(CCc3ccccc3)c(=O)[nH]c2=O)ccc1O,·,-26,1,19,-3,7,-11,i,
Cc1ccc2c(c1)N(N=O)CCC2,·,-5,7,-2,·,21,-10,i,
COC(=O)C1=C(c2ccccc2OCc2ccccc2)C[C@@H]2CC[C@H]1N2C(=O)NC1CCN(Cc2ccccc2)CC1,3,-4,-1,·,8,·,12,·,
COC(=O)C1=C(c2ccc(C(C)=O)cc2)C[C@@H]2CC[C@H]1N2C(=O)N1CCCCC1,-11,1,-3,·,·,·,5,·,
CCn1c(O)c(C=Nc2ccc(N3CCOCC3)cc2)c(=O)n(CC)c1=S,-15,-30,6,?,34,?,5,i,
C/C(=N\N(C)c1ccccc1)c1c(O)[nH]c(=O)[nH]c1=O,·,-1,-1,-5,-30,11,26,i,
c1ccc2sc(C3CCNCC3)nc2c1,-9,-2,-6,-1,19,4,0,i,
Cc1ccsc1C(=O)C1CCCN(Cc2cnc(N3CCOCC3)s2)C1 (stereo not given),-16,5,-6,-4,15,-4,-6,i,
O=C(c1ccc(Cl)cc1)C1CCCN(Cc2cccc3cnccc23)C1 (stereo not given),-12,3,-18,-13,34,1,29,i,
NC(=O)Cn1cc(C=C2C(=O)NC(=O)NC2=O)c2ccccc21,·,-3,6,?,13,?,-13,i,
Nc1c(C(=O)OC2CCCCC2)c2nc3ccccc3nc2n1CC1CCCO1 (stereo not given),-29,-35,-23,-10,34,-12,-1,i,
O=C(C1CC(c2ccc(Cl)c(Cl)c2)=NO1)N1CCC2(CC1)OCCO2 (stereo not given),6,2,0,-3,·,-2,1,i,
COc1ccc(NC(=O)c2c(C)nn(Cc3ccccc3Cl)c2Cl)cc1Cl,·,6,2,14,·,14,·,i,
CCCOC(=O)C1C2CCC(O2)C1C(=O)O (stereo not given),-10,3,4,·,-9,·,·,·,
O=C(c1cccn2c(=O)c3cc(Cl)ccc3nc12)N1CCC2(CC1)OCCO2,-14,2,6,0,6,3,-2,i,
c1ccc(P(c2ccccn2)c2ccccn2)cc1,·,-5,2,0,9,10,-19,i,
